# Mtb H37Rv = M. tuberculosis H37Rv growth inhibitors, H37Rv strain (AID 1626); M. tuberculosis H37Rv growth inhibition; higher % means a stronger effect; inhibition, % at 10 µM; hits with a dose series show IC50 in µM; 0.95% of 220,000 active;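 active = confirmed in a dose series; inconclusive = inhibition above 80% but not taken into the dose series; inactive = below 80% or under 30% at every dose of the series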;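 also: bacteria incubated seven days before Alamar blue readout; 0% = bacteria only wells and 100% = bacteria with antibiotic wells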
# YopH PTP inh = YopH tyrosine phosphatase inhibitors, primary screen, biochemical, fluorescence Ex485/Em525; YopH tyrosine phosphatase [Yersinia enterocolitica]; inhibition, %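 (about 10 µM by stock and volumes)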; 0.16% of 140,000 active; AID 898, 2007;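 active = inhibition of 50% or more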;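 also: controls were vehicle for no effect and minimum signal wells for full effect; inactives centre near -20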
# Arbovirus anti = antivirals against arbovirus infection, primary screen, cell-based, full library, 10K replicate subset; arbovirus infection cell-based antiviral screen; inhibition, % at 10 µM; 0.37% of 200,000 active; AID 1251, 2008;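 active = inhibition from about 30%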;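 also: bluetongue infection of BSR cells; cell survival read as ATP light after 72 h; 0% = infected wells without compound and 100% = uninfected wells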
# Mtb betalactam = beta-lactam sensitization of Mtb H37Rv, H37Rv. M. tuberculosis H37Rv growth with meropenem, percent inhibition; hits of this screen are not shown here. inhibition, % at 25 µM. 0.27% of 330,000 active. AID 434955, 2010;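 active = about 74% or more and at least 40 points above the plate without the antibiotic, then above 30% in a dose series; inconclusive = first-round hits that could not be retested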;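 also: growth measured after seven days incubation then overnight dye step; 0% = bacteria only wells and 100% = bacteria with antibiotic; twin plates without the antibiotic show which effects depend on it; some results filed as inactive read as strong as hits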
# RecA intein inh = Mtb RecA intein splicing inhibitors, primary screen, biochemical, fluorescence, HTS | Protein RecA (Mycobacterium tuberculosis (strain ATCC 25618 / H37Rv)), P9WHJ3 | cell-free RecA intein splicing | inhibition, %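 (about 9 µM by stock and volumes)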 | 0.75% of 290,000 active; in the data active = inhibition above about 30%; inconclusive = no clear call, values can overlap the other calls;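 also: 0% = vehicle wells and 100% = reference inhibitor control wells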
# Target sequence (P9WHJ3 whole entry, looked up): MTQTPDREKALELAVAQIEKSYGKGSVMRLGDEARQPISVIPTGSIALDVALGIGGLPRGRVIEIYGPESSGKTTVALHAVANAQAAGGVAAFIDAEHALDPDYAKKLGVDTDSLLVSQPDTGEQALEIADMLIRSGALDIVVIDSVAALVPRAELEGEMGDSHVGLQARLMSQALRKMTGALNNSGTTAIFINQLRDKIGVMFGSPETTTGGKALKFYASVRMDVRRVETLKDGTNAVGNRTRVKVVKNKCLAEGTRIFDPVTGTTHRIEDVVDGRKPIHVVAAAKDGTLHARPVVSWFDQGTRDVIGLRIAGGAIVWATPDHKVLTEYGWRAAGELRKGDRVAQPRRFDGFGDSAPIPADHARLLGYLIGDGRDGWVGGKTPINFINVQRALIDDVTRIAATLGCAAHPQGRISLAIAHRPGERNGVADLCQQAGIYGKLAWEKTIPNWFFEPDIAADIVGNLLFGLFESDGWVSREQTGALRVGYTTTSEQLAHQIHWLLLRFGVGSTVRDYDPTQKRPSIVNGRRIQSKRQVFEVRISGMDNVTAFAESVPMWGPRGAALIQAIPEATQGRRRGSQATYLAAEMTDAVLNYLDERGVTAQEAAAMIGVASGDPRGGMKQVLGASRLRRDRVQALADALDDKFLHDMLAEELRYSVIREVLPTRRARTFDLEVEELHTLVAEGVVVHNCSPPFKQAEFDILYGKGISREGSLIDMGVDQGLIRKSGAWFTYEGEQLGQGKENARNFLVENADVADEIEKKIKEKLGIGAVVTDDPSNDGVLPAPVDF
# Arbovirus anti repeat = recorded beside Arbovirus anti, whose call it bears; inhibition, %; measured here: 10K subset replicate screen; many hits read low in the repeat;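 first of two repeat runs on a subset; 0% = infected and 100% = uninfected wells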
# The depositor's hits bear a star; ? = inconclusive; . = no result given.
SMILES,Mtb H37Rv,YopH PTP inh,Arbovirus anti,Mtb betalactam,RecA intein inh,others
CCc1ccc(NC(=O)C(C)OC(=O)c2ccc(NS(=O)(=O)c3ccc(C)c([N+](=O)[O-])c3)cc2)cc1 (stereo unspecified),0.0%,-24.5,-13.3,1.9,1.2,
Cc1ccc(NC(=O)/C=C/c2ccc3c(c2)OCO3)nc1,1.9%,-2.8,-28.4,87.8,3.8,
Nc1ccc(S(=O)(=O)c2ccc(N)c(N)c2)cc1,5.1%,.,2.6,-8.4,-4.7,
O=C1c2ccccc2C(=O)N1CCOCCN1C(=O)c2ccccc2C1=O,7.7%,-41.3,7.0,-17.8,1.1,
O=C(NCc1cccs1)c1nc2ncccn2n1,-4.6%,7.5,0.1,-8.5,-0.1,
O=C(CCCn1c(=O)[nH]c2ccccc2c1=O)NCCSCc1ccccc1,-1.9%,.,-5.4,-2.7,-2.0,
CCN1CCN(Cc2ccc(NC(=O)c3cc(NC(=O)c4ccno4)cc(OC)c3)cc2C(F)(F)F)CC1,14.6%,.,.,26.8,-1.8,
COc1cc(C(=O)Nc2ccc(C(=O)NCC3CCCO3)cc2)cc(OC)c1OC (stereo unspecified),.,.,.,-3.0,0.3,
O=C(N/N=C/c1c(O)n(Cc2ccc(F)cc2)c(=O)[nH]c1=O)c1ccccc1,6.8%,.,.,31.0,.,
Cc1ccc2c(c1)Sc1c(ccc3ccccc13)N2,9.5%,.,.,22.4,7.1,
O=C(NNc1cc(C(F)(F)F)nc2ccccc12)Nc1cccc(Cl)c1,4.8%,.,.,9.2,3.6,
CCOC(=O)c1[nH]c(C)c(CN(CCc2ccc(OC)c(OC)c2)C(=O)CCCC(=O)O)c1C,-0.5%,0.7,6.0,-15.3,-2.0,

# By substructure: those above containing a CF3 group.
SMILES,Mtb H37Rv,YopH PTP inh,Arbovirus anti,Mtb betalactam,RecA intein inh,others
CCN1CCN(Cc2ccc(NC(=O)c3cc(NC(=O)c4ccno4)cc(OC)c3)cc2C(F)(F)F)CC1,14.6%,.,.,26.8,-1.8,
O=C(NNc1cc(C(F)(F)F)nc2ccccc12)Nc1cccc(Cl)c1,4.8%,.,.,9.2,3.6,

# Other compounds:
SMILES,Mtb H37Rv,YopH PTP inh,Arbovirus anti,Mtb betalactam,RecA intein inh,others
O=C(NCCc1ccccc1)C(=O)NCC1OCCN1S(=O)(=O)c1ccc(Br)cc1 (stereo unspecified),.,.,.,-2.0,-1.1,
O=C(/C=C/c1cccs1)N1CCN(c2ccc(O)cc2)CC1,-6.3%,.,-26.6,-7.6,-5.7,
O=C(COc1ccc(Cl)cc1Br)NNC(=O)C(=O)N1CCCCC1,8.3%,-46.5,-5.6,87.3,-0.1,
Cc1ccnc(NC(c2ccccc2O)c2oc(CO)cc(=O)c2O)c1 (stereo unspecified),-6.6%,.,8.5,0.7,-2.3,
O=C1C(Cl)=C(Nc2ccc3cn[nH]c3c2)C(=O)c2ccccc21,.,.,.,61.4,89.5*,
CC1CCOC2(O1)C(=O)N(CN1CCN(c3ccccc3F)CC1)c1ccccc12 (stereo unspecified),.,-30.5,-0.3,9.0,0.9,
CCCCC1=CC2=CC(=O)C(C)(OC(=O)CC)C(=O)C2=CN1c1cccc(C#N)c1 (stereo unspecified),-7.3%,.,.,-7.2,-3.4,
CCOCC(=O)Nc1cc([N+](=O)[O-])ccc1C,5.5%,-32.2,1.3,4.0,0.4,
C/C(=N/NC(=O)c1ccco1)c1cccc(NC(=O)c2ccc(C)s2)c1,15.8%,-15.9,-1.7,3.9,3.6,
O=C(NCc1cccnc1)C1CCN(S(=O)(=O)c2cccs2)CC1,-9.0%,-35.3,-1.4,-9.8,-2.2,
CC(=O)Nc1ccc(S(=O)(=O)N2CCC(C(=O)N[C@@H](C)C(=O)NC3CCCC3)CC2)cc1,.,.,.,-7.7,1.9,
CC1(C)Cc2cccc(OCC(=O)Nc3cccnc3)c2O1,-8.2%,-47.7,7.4,?,-1.7,
COc1ccc(CN(C)C(=O)Cc2c[nH]c3ccccc23)c(OC)c1OC,.,.,.,2.7,-0.6,
Fc1ccc(CSc2nnc(Cc3sc(-c4ccccc4)nc3-c3ccccc3)o2)cc1,-4.7%,-6.3,4.7,0.7,2.8,
COc1ccc(/C=C/c2ccncc2)cc1OC,6.0%,28.8,-3.0,3.5,.,
CC(=O)N(Cc1cccc(Br)c1)c1ccc(N2CCOCC2)c(Cl)c1,.,.,.,-6.6,5.7,
CN1C(=O)CC(N2CCC(c3nc4ccccc4[nH]3)CC2)C1=O (stereo unspecified),-12.3%,1.3,7.9,-6.1,3.5,Arbovirus anti repeat=1.9
C=CCn1c(COc2cccc(C)c2)nnc1SCC(=O)NC(=O)NCc1ccco1,-9.9%,7.8,13.1,0.8,4.1,
CNc1cc(CSc2ccc(Cl)cc2)nc(C)n1,6.3%,.,15.9,-1.8,0.5,
Cc1cccc(C)c1NC(=O)c1c(C)nn(-c2ccccc2)c1Cl,-2.4%,-32.1,-14.1,10.7,1.4,
COc1cc(C(=O)Nc2cc(C(F)(F)F)ccc2N2CCOCC2)ccc1OCC(=O)N1CCOCC1,.,.,.,2.3,0.0,
CC(C)c1ccccc1NC(=O)COC(=O)Cc1c[nH]c2ccccc12,8.2%,-20.0,0.8,-2.0,-2.1,
COc1ccc(NS(=O)(=O)c2cccc(C(=O)N(C)Cc3ccc(SC)cc3)c2)cc1,.,.,.,-12.6,-1.1,
CC1CCCCN1c1nnc(N)s1 (stereo unspecified),-0.5%,-1.8,1.1,-9.3,-3.9,

# Some of these compounds in order of count of non-hydrogen atoms, largest number first:
SMILES,Mtb H37Rv,YopH PTP inh,Arbovirus anti,Mtb betalactam,RecA intein inh,others
COc1cc(C(=O)Nc2cc(C(F)(F)F)ccc2N2CCOCC2)ccc1OCC(=O)N1CCOCC1,.,.,.,2.3,0.0,
CC(=O)Nc1ccc(S(=O)(=O)N2CCC(C(=O)N[C@@H](C)C(=O)NC3CCCC3)CC2)cc1,.,.,.,-7.7,1.9,
C=CCn1c(COc2cccc(C)c2)nnc1SCC(=O)NC(=O)NCc1ccco1,-9.9%,7.8,13.1,0.8,4.1,
CCCCC1=CC2=CC(=O)C(C)(OC(=O)CC)C(=O)C2=CN1c1cccc(C#N)c1 (stereo unspecified),-7.3%,.,.,-7.2,-3.4,
COc1ccc(CN(C)C(=O)Cc2c[nH]c3ccccc23)c(OC)c1OC,.,.,.,2.7,-0.6,
C/C(=N/NC(=O)c1ccco1)c1cccc(NC(=O)c2ccc(C)s2)c1,15.8%,-15.9,-1.7,3.9,3.6,
CC(=O)N(Cc1cccc(Br)c1)c1ccc(N2CCOCC2)c(Cl)c1,.,.,.,-6.6,5.7,
Cc1cccc(C)c1NC(=O)c1c(C)nn(-c2ccccc2)c1Cl,-2.4%,-32.1,-14.1,10.7,1.4,
CN1C(=O)CC(N2CCC(c3nc4ccccc4[nH]3)CC2)C1=O (stereo unspecified),-12.3%,1.3,7.9,-6.1,3.5,Arbovirus anti repeat=1.9
CC1(C)Cc2cccc(OCC(=O)Nc3cccnc3)c2O1,-8.2%,-47.7,7.4,?,-1.7,
CNc1cc(CSc2ccc(Cl)cc2)nc(C)n1,6.3%,.,15.9,-1.8,0.5,
CCOCC(=O)Nc1cc([N+](=O)[O-])ccc1C,5.5%,-32.2,1.3,4.0,0.4,
CC1CCCCN1c1nnc(N)s1 (stereo unspecified),-0.5%,-1.8,1.1,-9.3,-3.9,

# Further results
SMILES,Mtb H37Rv,YopH PTP inh,Arbovirus anti,Mtb betalactam,RecA intein inh,others
COc1ccc(CNC(=O)C(=O)N2CCC3(CC2)OCCN3S(=O)(=O)c2ccc(C)cc2)cc1,.,.,.,-5.6,1.8,
O=C1NC(=O)c2cc([N+](=O)[O-])cc3cccc1c23,.,.,.,26.6,-232.7,
O=C(Nc1ccccc1N1CCCCC1)c1ncoc1-c1ccc(F)cc1,3.4%,26.4,9.1,55.5,1.0,
Cc1cccc(N(CC(=O)NCC2CCCO2)C(=O)CCC(=O)Nc2nccs2)c1 (stereo unspecified),.,.,.,0.9,-3.7,
COc1cccc(CC(=O)Nc2ccc3nc(C)sc3c2)c1,3.3%,6.6,-1.8,-3.9,2.7,
COc1cccc(N/C=C/C(=O)c2ccc(Br)cc2)c1,7.2%,-5.8,.,-6.7,-6.1,
COc1ccc(-c2cc(C(=O)N3CCOCC3)c3cc(C)ccc3n2)cc1,-1.6%,-31.7,3.5,78.8,1.0,
C[C@H]1CC[C@]2(O[C@@H](CCO)C[C@H](O)[C@H]2O)O1,4.1%,.,.,-11.3,-2.1,
CC(C)(C)NC(=O)CN(C(=O)CNS(=O)(=O)c1ccccc1)c1ccc2c(c1)OCCO2,-9.2%,-27.4,6.9,-16.3,1.1,
CN1/C(=C/C2CC(=O)N(c3cccc4ccccc34)C2=O)C(C)(C)c2ccccc21 (stereo unspecified),0.9%,-12.2,5.0,20.7,0.5,
CN(C)C(=O)CCC(=O)N1CCCC(C(=O)c2ccc(C(F)(F)F)cc2)C1 (stereo unspecified),.,.,.,-7.0,0.0,
CC1CCN(S(=O)(=O)CCNC(=O)c2ccc(F)cc2)CC1,.,.,.,1.7,-0.1,
Cc1cc[n+](-c2[nH]c(=O)sc2/C=N/NC([S-])=Nc2ccccc2)cc1,1.4%,-8.8,21.9,3.6,1.4,
COC(=O)c1cc2sc(Cl)cc2n1Cc1nc(-c2ccccc2)oc1C,4.2%,-29.8,-7.2,-5.2,1.5,
CCOC(=O)C1CCN(c2ncnc3c2c(-c2ccccc2)cn3-c2ccc(C)cc2)CC1,6.0%,.,-18.2,78.3,-3.5,
Cc1cccc2c1ncc1c(=O)n(-c3ccccc3)[nH]c12,.,.,.,-2.2,-2.4,
COc1ccc2nc(Nc3ccc4c(c3)OCO4)sc2c1,-3.7%,-28.4,-20.4,-9.9,2.8,
COc1ccc(NC(=O)/C=C/c2ccc3c(c2)OCO3)cc1,76.7%,.,-31.6,83.4,-3.2,
N#Cc1ccc(OCC(=O)Nc2cc(S(=O)(=O)N3CCCCC3)ccc2N2CCCCC2)cc1,4.8%,-29.1,0.8,-6.4,0.1,
CC(NC(=O)C1CCN(S(=O)(=O)c2cccc3cccnc23)CC1)c1ccccc1 (stereo unspecified),.,.,.,1.2,2.2,
O=[N+]([O-])c1ccc2nc(SCc3ccccc3Cl)sc2c1,0.0%,-12.9,1.8,-9.5,-0.4,
Fc1ccc(-c2csc3ncnc(N4CCN(Cc5ccccc5)CC4)c23)cc1,.,.,.,-4.8,8.3,
O=C(Nc1ccc(Oc2ccccc2)nc1)C1CCCCN1Cc1ccc(OCCO)cc1 (stereo unspecified),.,.,.,2.3,2.6,
CSc1cccc(NC(=O)C2CC(=O)N(Cc3ccccc3)C2)c1 (stereo unspecified),.,.,.,-20.5,0.1,
COc1ccccc1C1CC(c2ccco2)=NN1c1ccccc1 (stereo unspecified),-5.5%,-16.5,13.0,8.2,-1.2,
CCC(C)(C)NC(=S)Nc1ccccc1C,-2.9%,.,12.2,1.4,-2.4,
CN(C)c1ccc(C(=S)NC2CCCCC2)cc1,-4.3%,.,-7.7,6.6,-3.2,
O=c1nc(SCc2cccc(C(F)(F)F)c2)nc2ccccn12,7.1%,.,-20.9,-5.9,-7.0,
N#C/C(=C\c1cc([N+](=O)[O-])c(N2CCCCC2)cc1N1CCCCC1)c1nn(-c2ccccc2)c(N)c1C#N,9.9%,-14.3,-2.8,76.6,-5.7,
COc1ccccc1NC(=O)Cn1nc(C)n2cccc2c1=O,.,.,.,-1.7,-0.6,
COC(=O)C(O)(c1c(C)[nH]c2ccccc12)C(F)(F)F (stereo unspecified),-0.6%,20.3,5.0,-9.5,.,
COc1ccc2nc(N/C(N)=N/C(=S)Nc3c(C)cccc3C)nc(C)c2c1,-0.9%,.,-8.0,26.2,0.6,
CCOC(=O)CCCNC(=O)COC(=O)[C@@H]1CCCN1S(=O)(=O)c1ccc(Cl)cc1,-4.2%,-57.1,0.9,9.4,-2.2,
O=S(=O)(c1ccc(Oc2ncnc3scc(-c4ccccc4)c23)cc1)N1CCOCC1,18.8%,-35.6,-1.0,90.6,1.4,
O=C(Nc1ccccc1C(=O)OCC(=O)N1CCc2ccccc2C1)c1ccco1,-10.4%,-32.1,-2.7,-9.0,-2.6,
CC1CCN(C(=O)CSc2nnc(N)s2)CC1,.,.,.,-2.3,0.2,
COc1cccc(-c2nnc(-c3ccccc3[N+](=O)[O-])o2)c1,4.3%,.,.,-6.2,-1.3,
O=C(CN1CCSC1=NCc1ccccc1)c1ccc(Cl)cc1,5.9%,-12.7,1.8,8.9,2.2,
O=S(=O)(Nc1cccc(-c2ccc3nncn3n2)c1)c1cc(F)ccc1F,.,.,.,1.7,-1.9,

# Screening data: PubChem, several laboratories

# Some of the compounds tested; the hit share may differ from the screen's.
